From PubChem
Lassa entry inh – qHTS for Inhibitors of binding or entry into cells for Lassa Virus; Potency, µM (titrated, usually from 37.9 µM), without a hit: at the highest dose activity change, negative = inhibition, most hits filed as inhibitors; AID 540256, 2011; 300,000 compounds, 1.2% hits; Lassa virus pseudotype entry inhibition, cell reporter; control for the full effect not named in the record; active means well fitted inhibition curve with a large enough effect; inconclusive means small, poorly fitted or top-dose-only effect, or effect the other way; inactive means flat fitted curve, though single readings scatter; tested in HEK293 cells; further: on the % scale 0 is the no-effect control and ±100 the full control effect; nearly all actives have a fitted effect of over 50% in size; luciferase read-out
2A StopGo – High Throughput Screening for Foot and Mouth Disease Virus Antivirals; human cells with a luciferase reporter of 2A StopGo recoding; control for the full effect not named in the record; Potency, µM (doses to about 57.9 µM), for inactives: at the top dose signal change, negative = less light; 410,000 compounds, 1.2% hits; AID 1159524, 2015; active = well fitted falling curve with a large enough effect; inconclusive = small, poorly fitted or top-dose-only effect; inactive = no such curve, though single readings can be large or run the other way; tested in HEK293T cells; further: on the % scale 0 is the no-effect control and ±100 the full control effect; nearly all actives have a fitted effect of over 45% in size; luciferase light after 4 h
Cruzain inh noDet – qHTS Assay for Promiscuous and Specific Inhibitors of Cruzain (without detergent); Potency, µM, without a hit: max response, negative = inhibition, usual class: inhibitors; 200,000 compounds, 2.3% hits; AID 1476, 2009; purified cruzain, Z-FR-AMC fluorescence, no detergent;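 further: plate controls were enzyme without inhibitor for no effect and buffer without enzyme for full effect; nearly all actives have a fitted effect of over 40% in size; top concentration of the series not given in the record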
Target sequence (P25779 123-467 limits assumed): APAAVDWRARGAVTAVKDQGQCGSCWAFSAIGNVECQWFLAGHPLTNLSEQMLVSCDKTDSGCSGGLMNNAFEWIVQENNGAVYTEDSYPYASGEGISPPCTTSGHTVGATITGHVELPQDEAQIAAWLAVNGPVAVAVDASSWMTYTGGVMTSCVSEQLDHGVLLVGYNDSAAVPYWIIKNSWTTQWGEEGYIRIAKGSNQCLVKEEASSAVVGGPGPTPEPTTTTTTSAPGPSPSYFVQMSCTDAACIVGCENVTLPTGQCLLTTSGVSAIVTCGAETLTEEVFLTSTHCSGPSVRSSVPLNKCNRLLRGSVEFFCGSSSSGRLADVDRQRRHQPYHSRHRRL
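Purified cruzain at 1.5 nM, pre-incubated 15 min with compound at room temperature in 100 mM sodium acetate pH 5.5, 5 mM DTT, 0.00005% Triton X-100. Reaction started with 2 uM Z-FR-AMC; AMC fluorescence increase over 60 s gives rate.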
NS1 inh – qHTS Assay for Inhibitors of Influenza NS1 Protein Function; S. cerevisiae slowed by influenza A NS1, growth recovery by OD600; 270,000 compounds, 0.4% hits; AID 2326, 2010; Potency, µM (series often up to 46.1 µM), for inactives: top-dose activity, positive = more growth; active means well fitted rising curve with a large enough effect; inconclusive means small, poorly fitted or top-dose-only effect; inactive means no such curve, though single readings can be large or run the other way; further: nearly all actives have a fitted effect of over 50% in size
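OD600 was taken as the measure of yeast growth restored by compound in an NS1-expressing S. cerevisiae strain. Cells had been washed out of glucose medium and diluted 1:100 into galactose -URA medium, pH 6.0.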
Cruzain inh Det – qHTS Assay for Promiscuous and Specific Inhibitors of Cruzain (with detergent). 200,000 compounds, 0.43% hits. purified cruzain, Z-FR-AMC fluorescence, 0.01% Triton. Cruzipain (Trypanosoma cruzi), P25779. AID 1478, 2009. Potency, µM, for inactives: max response, negative = inhibition, most hits filed as inhibitors;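 further: plate controls were neutral wells for no effect and buffer without enzyme for full effect; nearly all actives have a fitted effect of over 40% in size; top concentration of the series not given in the record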
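Cruzain (1.5 nM) preincubated 15 min at RT with compound in 100 mM sodium acetate pH 5.5, 5 mM DTT, 0.01% Triton X-100. Reaction started with 2 uM Z-FR-AMC; AMC fluorescence (ex 360/em 450 nm) change over 60 s gave rate.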
RE007 growth inh – qHTS Assay for Inhibitors of the HIV-1 protein Vpr; S. pombe RE007 Vpr strain, BacTiter-Glo ATP luminescence, 24 h; control for the full effect not named in the record; Potency, µM (top dose mostly 92.2 µM), for the others: at the top dose activity change, negative = less growth; 360,000 compounds, 0.21% hits; AID 651644, 2012; active = well fitted falling curve with a large enough effect; inconclusive = small, poorly fitted or top-dose-only effect; inactive = no such curve, though single readings can be large or run the other way;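 further: on the % scale 0 is the no-effect control and ±100 the full control effect; nearly all actives have a fitted effect of over 50% in size; the assay follows cell death caused by Vpr and the record does not say whether a fall means rescue or toxicity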
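Fission yeast strain RE007, carrying one chromosomally integrated HIV-1 vpr copy, was seeded at OD 0.01 in PMG+AL medium with 23 nL pinned compound. After 24 h at 30 °C and 99% humidity, viability was read by BacTiter-Glo luminescence.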
SARS PLP yeast – qHTS of Yeast-based Assay for SARS-CoV PLP; Potency, µM (highest dose often 32.9 µM), without a hit: at the highest dose activity, positive = growth rescue; AID 485353, 2010; 330,000 compounds, 0.19% hits; S. cerevisiae expressing SARS-CoV PLpro, growth rescue; control for the full effect not named in the record; active means well fitted rising curve with a large enough effect; inconclusive means small, poorly fitted or top-dose-only effect; inactive means no such curve, though single readings can be large or run the other way; further: 0% is about no effect; nearly all actives have a fitted effect of over 55% in size; growth read by luminescence after 48 h
Marburg entry inh – qHTS for inhibitors of binding or entry into cells for Marburg Virus; Marburg virus pseudotyped entry inhibition, cell reporter; control for the full effect not named in the record; about a third of the inactives were read at about 46 µM; 300,000 compounds, 1.8% hits; AID 540276, 2011; Potency, µM (series often up to 37.8 µM), for the others: at the highest dose activity change, negative = inhibition, most hits filed as inhibitors; active = well fitted inhibition curve with a large enough effect; inconclusive = small, poorly fitted or top-dose-only effect, or effect the other way; inactive = flat fitted curve, though single readings scatter; tested in HEK293 cells; about a fifth of its hits are not listed in these tables; further: on the % scale 0 is the no-effect control and ±100 the full control effect; luciferase read-out
* = called active by the depositor; ? = inconclusive; . = no result given; & = joins results of further samples; [ ] = remark or other dose. Unless noted, the call rests on the fitted dose curve; in most records, active means well fitted curve in the direction sought with a large enough effect; inconclusive means small, poorly fitted or top-dose-only effect, or another doubt; inactive means no such curve, though single readings can be large; an effect the other way counts as inactive or inconclusive. Potency means the concentration at half of the fitted maximal effect. Compounds were not picked by outcome; 4.7% or so of the library scored in one or more.

SMILES | Lassa entry inh | 2A StopGo | Cruzain inh noDet | NS1 inh | Cruzain inh Det | RE007 growth inh | SARS PLP yeast | Marburg entry inh
O=C(COc1ccccc1)OCc1cc(=O)n2nc(C3CC3)sc2n1 | -16%[46.1 µM] | -4% | 1% | . | -1.6% | . | . | .
NS(=O)(=O)c1cccc(NC(=O)CSc2ccccn2)c1 | 11% | 26% | 2% | 5% | 0.3% | 7% | 3% | 16%
Cc1ccc(NC(=O)CCNC(=O)Cn2cnc3ccccc3c2=O)cc1F | 2%[46.1 µM] | 6% | . | 5% | . | -5% | -9% | 9%[46.1 µM]
FC(F)(F)Oc1ccc(NC(=S)Nc2ccc(OC(F)(F)F)cc2)cc1 | . | -29% | . | -44% | . | -6% | -3% | .
COc1ccc(-n2cc3ccc([N+](=O)[O-])cc3n2)cc1 | ? | -35% | . | -3% | . | -18% | -3% | ?
CCN1CCN(C(c2ccc(C)cc2)c2c(O)cc(C)n(Cc3ccco3)c2=O)CC1 (stereo not given) | 10%[46.1 µM] | -29% | ? | . | 0.5% | . | . | .
O=C(Nc1ccc(Cl)cc1)C(NS(=O)(=O)c1cccs1)c1ccccc1 (stereo not given) | ? | 0% | -15% | . | -8.3% | . | . | -24%[46.1 µM]
COc1ccc(C(=O)Nn2c(C)nc3ccccc3c2=O)cc1 | . | -12% | . | 1% | . | 8% | 0% | .
CC(C)CC(=O)NC(=S)Nc1ccccn1 | ? | 40%[activator] | 3% | -12% | -5.9% | 17% | ? | 15%
COc1ccc(S(=O)(=O)N2CCOCC2)cc1NC(=O)c1c(-c2ccccc2)noc1C | -17% | -5% | . | . | . | -22% | -6% | -6%
O=C(c1cccnc1)N1CCC(Oc2ccc(C(=O)N3CCCC(O)C3)cc2)CC1 (stereo not given) | 8% | -6% | . | 2% | . | -9% | 0% | 1%[46.1 µM]
COc1ccc(NC(=O)/C=C/c2ccc(Br)o2)cn1 | 9% | -2% | . | . | . | -10% | 0% | 6%[46.1 µM]
Cc1ccc(C(=O)C(=S)N2CCOCC2)cc1 | 3% | -15% | -1% | -3% | -3.5% | -5% | 4% | ?
Clc1cccc2sc(N3CCCCC3)nc12 | 17% | 62%[activator] | -7% | -7% | -4.2% | -18% | -5% | 14%
CCN(CC)c1ccc(NC(=O)CSc2nc3ccccc3c(=O)n2-c2cc(S(=O)(=O)N(C)C)ccc2C)cc1 | 8% | -16% | -4% | ? | -4.0% | 4% | -5% | -44%
CCC(C)(C)NC(=O)CN(C(=O)CCC(=O)Nc1nccs1)c1ccc(C)cc1 | . | -2% | . | -5% | . | -9% | 4% | .
COc1ccc(CNC(=O)c2cc3cc(OC)ccc3oc2=O)cc1 | ? | -15%&85% | -6% | 7% | -1.9% | -6% | -14% | ?
N=C1C(c2ccccc2)=C(O)CN1Cc1ccco1 | 6% | -3% | -8% | -3% | 2.5% | -18% | -1% | 10%
CC(C)n1c(N2CCN(CC(=O)NCc3cccs3)CC2)nc2ccccc21 | 10% | 0% | -4% | -14% | 2.8% | 10% | 2% | ?
O=C(CSc1nc2ccccc2c(=O)n1CC1CCCO1)NCC1CCCO1 (stereo not given) | -2% | -7% | 5% | 2% | -1.0% | -7% | -3% | 4%
CCOC(=O)c1oc2ccccc2c1COC(=O)CNC(=O)c1ccc(C)cc1 | 28% | -16% | . | . | . | 2% | -1% | 26%[46.1 µM]
COc1ccc(S(=O)(=O)Nc2ccc(S(=O)(=O)N3CCCCC3)cc2)cc1C | -12% | 96%[activator] | 6% | 10% | -3.4% | -3% | -3% | 13%
Cc1cc(F)ccc1NC(=O)CCc1c(C)nn(-c2ccc(N3CCCCC3)nn2)c1C | ? | -27% | . | -17% | . | -10% | 0% | -16%[46.1 µM]
CCOC(=O)c1c(C)[nH]c(C(=O)OCC(=O)N2CCN(S(=O)(=O)c3ccccc3)CC2)c1C | -6% | 3% | ? | -1% | -3.1% | -9% | -1% | 5%&5%
COc1ccc(C2/C(=C(/O)c3ccccc3)C(=O)C(=O)N2c2ccccn2)cc1 (stereo not given) | . | -8% | . | 11% | . | -12% | -3% | .
CN(C(=O)CSc1nncn1-c1ccccc1)C1CCS(=O)(=O)C1 (stereo not given) | 0% | -19% | . | . | . | 12% | 1% | 4%[46.1 µM]
O=c1ccc2cc(S(=O)(=O)NCc3ccc(Cl)cc3)ccc2[nH]1 | 21%[46.1 µM] | -7% | -17% | . | -9.2% | . | . | .
Cc1ccc(N2CC(C(=O)Nc3ccc(S(=O)(=O)Nc4nccc(C)n4)cc3)CC2=O)cc1 (stereo not given) | ? | -9% | . | 4% | . | 4% | 0% | ?
Cc1nnc(SCC(=O)N/N=C/c2ccc(-c3ccc(C)c(Cl)c3)o2)s1 | ? | -24% | 12% | 7% | -7.2% | 0% | -12% | -25%
O=C(NCc1ccccc1)Nc1cccn(Cc2cccc(F)c2)c1=O | -7% | -1% | 5% | 11% | -1.2% | 1% | -12% | -6%

Reprinted from the part before: three compounds, then new ones.
SMILES | Lassa entry inh | 2A StopGo | Cruzain inh noDet | NS1 inh | Cruzain inh Det | RE007 growth inh | SARS PLP yeast | Marburg entry inh
Cc1ccc(N2CC(C(=O)Nc3ccc(S(=O)(=O)Nc4nccc(C)n4)cc3)CC2=O)cc1 (stereo not given) | ? | -9% | . | 4% | . | 4% | 0% | ?
Cc1nnc(SCC(=O)N/N=C/c2ccc(-c3ccc(C)c(Cl)c3)o2)s1 | ? | -24% | 12% | 7% | -7.2% | 0% | -12% | -25%
O=C(NCc1ccccc1)Nc1cccn(Cc2cccc(F)c2)c1=O | -7% | -1% | 5% | 11% | -1.2% | 1% | -12% | -6%
COC(=O)c1sc(N2C(=O)c3oc4cc(C)c(C)cc4c(=O)c3C2c2ccccc2F)nc1C (stereo not given) | 1%[46.1 µM] | -10% | 1% | . | -0.7% | . | . | ?
Cn1c(=O)[nH]c(=O)c2c1nc(N1CCCCC1)n2CCSc1nc2ccccc2o1 | . | 0% | -8% | 13% | -0.9% | 9% | 3% | 3%
O=C(CCCCCCCC(=O)NNC(=O)Nc1ccccc1)NNC(=O)Nc1ccccc1 | ? | 6% | ? | 30% | -20% | -16% | 23% | 10%
CC(=O)Nc1cccc(NC(=O)Cc2csc(COc3cccc(C)c3)n2)c1 | 5%[46.1 µM] | -25% | 0% | . | -3.3% | . | . | -13%[46.1 µM]
COCCCn1c(=NC(=O)c2ccc3c(c2)OCO3)c(C#N)cc2c(=O)n3cccc(C)c3nc21 | . | . | 18% | 10% | -3.5% | . | -4% | .
O=C(NCc1ccc(Cl)cc1)C(=O)NCC(c1ccco1)N1CCOCC1 (stereo not given) | -1% | -5% | -3% | -15% | -4.1% | 3% | -7% | -2%
O=S(=O)(Nc1cccc(CO)c1)c1cccs1 | -10% | -8% | . | 1% | . | -10% | 0% | 9%[46.1 µM]
COc1ccc(-c2coc3cc4oc(=O)c5ccccc5c4cc23)cc1F | ? | -16% | ? | 1% | -4.6% | 27% | 9% | -2%
COC(=O)C(NC(C)=O)(Nc1ccc(Br)cc1)C(=O)OC | 26% | . | 5% | 6% | 1.9% | -6% | -5% | 1%&1%
CC(=O)Nc1nc(-c2ccccc2)nc(C)c1C(C)=O | 20% | -15% | -3% | ? | 5.4% | -26% | 3% | 1%
COc1ccccc1NC(=O)CSc1nnc(C)n1Cc1ccccc1 | -7% | . | 14% | ? | 3.9% | 6% | 9% | 1%
Cc1ccc(S(=O)(=O)NCC(=O)N(CC(=O)NC2CCCCC2)Cc2ccco2)cc1 | -14% | -4% | 3% | -13% | 0.7% | -10% | 1% | ?
COc1ccc(-n2cc3c(-c4cccc(Br)c4)nnc(C)c3n2)cc1 | ? | -3% | -7% | 1% | -4.7% | 7% | -34% | -4%
Cc1cc(C)cc(C(=O)Nc2cccnc2Cl)c1 | . | 4% | . | -26% | . | -2% | -5% | .
O=C(NNC(=S)NCc1ccc(Cl)cc1)c1ccc2c(c1)OCO2 | -15% | 12% | . | -1% | . | -7% | -1% | -14%
COCC(C)NC(=O)c1ccccc1[N+](=O)[O-] (stereo not given) | ? | -14% | 9% | 1% | -0.9% | 15% | 28% | -2%
O=C(c1ccc2c(c1)OCO2)C1CCCN(Cc2cccc(C(F)(F)F)c2)C1 (stereo not given) | . | ? | . | -1% | . | -8% | ? | .
COc1ccc(S(=O)(=O)N/N=C(/C)c2ccncc2)cc1OC | -4%[46.1 µM] | 39%[activator] | . | 5% | . | -7% | 21% | -23%[46.1 µM]
CC(=O)c1c(C)[nH]c(C(=O)COC(=O)CCOc2ccc(C)cc2)c1C | ? | -7% | . | . | . | 3% | 2% | -26%
COc1ccc(CN2CCN(c3ncnc4sc5c(c34)CC(C)CC5)CC2)cc1F (stereo not given) | -6%[46.1 µM] | ? | -1% | . | ? | . | . | 5%[46.1 µM]
CCCCCCNCc1c(F)cccc1Cl | 5% | 4% | -3% | -10% | 2.9% | 7% | 1% | -3%
Cn1c(=O)c2c(nc(SCCN3CCCCC3)n2Cc2ccccc2)n(C)c1=O | 4% | -18% | -17% | -1% | -2.4% | -16% | -3% | ?
O=C(Nc1ccc(S(=O)(=O)NC2=NCCCCC2)cc1)c1ccc2ccccc2n1 | 8% | -16% | . | . | . | -4% | -1% | ?
COC(=O)c1cccc(NC(=O)C2CCN(S(=O)(=O)Cc3ccccc3)CC2)c1C | 0%[46.1 µM] | -18% | -3% | . | -4.3% | . | . | -1%[46.1 µM]
Cc1c(Cl)ccc2c(C(N)=O)cc(-c3ccccn3)nc12 | 9% | -15% | . | . | . | 0% | -2% | ?
